MLL AF4-AF9 inh: inhibitors of AF4 peptide binding to AF9, primary screen, biochemical, AlphaScreen, biotin-AF4 peptide, FLAG-AF9, single point. Protein AF-9 (Homo sapiens), P42568. inhibition, % at 10 µM. actives 0.47% (n = 350,000). AID 651704, 2012;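 active = every replicate reaching a set inhibition limit, whatever the replicate mean, cut at about 25% in these data; inconclusive = mean inhibition reaches that limit but some replicates miss it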;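 also: 0% = plate neutral control median and 100% = total signal loss; the record names both 10 and 1 µM as test concentration; the first replicate is given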
Target sequence (P42568 whole entry, looked up): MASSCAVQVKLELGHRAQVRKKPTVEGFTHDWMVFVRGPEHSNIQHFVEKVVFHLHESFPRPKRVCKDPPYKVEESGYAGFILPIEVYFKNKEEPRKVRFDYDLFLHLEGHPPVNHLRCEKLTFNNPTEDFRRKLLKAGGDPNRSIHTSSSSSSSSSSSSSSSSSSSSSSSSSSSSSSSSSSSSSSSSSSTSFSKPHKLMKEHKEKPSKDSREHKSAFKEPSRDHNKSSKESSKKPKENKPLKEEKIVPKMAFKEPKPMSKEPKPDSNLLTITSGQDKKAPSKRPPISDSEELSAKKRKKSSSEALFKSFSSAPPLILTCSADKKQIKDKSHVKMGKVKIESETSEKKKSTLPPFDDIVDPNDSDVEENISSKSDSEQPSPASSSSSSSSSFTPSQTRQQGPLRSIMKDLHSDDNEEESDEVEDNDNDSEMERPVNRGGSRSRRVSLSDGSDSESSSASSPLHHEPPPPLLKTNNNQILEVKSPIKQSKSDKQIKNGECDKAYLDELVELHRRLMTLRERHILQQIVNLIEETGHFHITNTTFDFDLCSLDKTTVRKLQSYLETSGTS
FGF22 binding: binders of human FGF22 protein, primary screen, FGF22 synaptogenesis inhibitor project, biophysical, thermal shift, single point | actives 1.5% (n = 340,000) | calls only at 9.99 µM | Fibroblast growth factor 22 (Homo sapiens), Q9HCT0 | AID 651658, 2012 | recombinant FGF22 thermal shift, SYPRO orange fluorescence; percent of sucrose octasulfate shift, DMSO zero;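 active = melting point raised past a set limit in the mean and every replicate; inconclusive = no clear call; three in four hits are not shown here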
Target sequence (Q9HCT0 whole entry, looked up): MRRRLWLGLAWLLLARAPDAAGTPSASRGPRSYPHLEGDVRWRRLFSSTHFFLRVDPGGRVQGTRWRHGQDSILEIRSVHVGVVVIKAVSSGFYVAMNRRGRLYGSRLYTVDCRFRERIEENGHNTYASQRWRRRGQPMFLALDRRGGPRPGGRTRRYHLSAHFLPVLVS
Vif A3G: inhibitors of Vif binding to APOBEC3G peptide, primary screen, biochemical, TR-FRET, GST-Vif 1-94, biotin-A3G peptide, dose response retest (AID 1117319). actives 0.57% (n = 260,000). inhibition, %; hits with a dose series show IC50 in µM. TR-FRET GST-Vif / biotin-A3G peptide binding; higher % means a stronger effect; test concentration not given here; strong numbers were not always called active;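 active = above the screen mean plus three standard deviations and confirmed in dose response; inconclusive = results disagree or hit not tested in dose response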;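 also: Vif residues 1-94 fused to GST binding biotinylated APOBEC3G peptide 110-148; 0% = full assay without inhibitor and 100% = GST in place of GST-Vif; retest series ran down from 100 µM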
Ecoli growth: E. coli growth inhibition, primary screen, OD600 | OD600 absorbance (no concentration beside the values) | actives 0.21% (n = 330,000) | Escherichia coli growth, 23 h; active compounds read low;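 active = OD600 absorbance below the run mean of sample wells minus 3.6 SD, in any replicate, cut at about 0.56 in these data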;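 also: stock transfer was 300 nL into about 60 µL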
HNF4A DNA FP: change in binding of human HNF4A to DNA, primary screen, biochemical, fluorescence polarization, FITC-DNA; activity change, % at 10 µM; actives 0.3% (n = 360,000); 1 h; in the data active = activity change above about 30%, passing the limit was not always enough;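 also: controls were the assay level and a saturating level of protein; the project sought stronger binding though the title names inhibitors; some compounds called inactive have numbers as strong as hits; positive values seem to mean higher polarization but the record does not say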
RanGTP-Impb inh: inhibitors of RanGTP-importin-beta interaction, primary screen, biochemical, FRET, CFP-Ran, YFP-importin-beta, homogeneous; cell-free CFP-Ran/YFP-importin-beta FRET ratio; actives 1.1% (n = 300,000); inhibition, % (test concentration not listed); Ran GTPase (GTP-bound) - importin-beta complex;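 active = most replicates above 15%; inconclusive = exactly half above 15%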;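 also: 0% = DMSO wells and 100% = Ran loaded with GDP instead of GTP; wells of about 40 µL received 100 nL stock; the first replicate is given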
UCH37 DUB inh: inhibitors of human UCH37 deubiquitinase, primary screen, biochemical, Ub-AMC cleavage, fluorescence | Ubiquitin carboxyl-terminal hydrolase isozyme L5 (Homo sapiens), Q9Y5K5 | purified proteasome/UCH37 | inhibition, % (test concentration not listed) | actives 0.33% (n = 330,000) | AID 588478, 2011;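 active = mean of two replicates above 20%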;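 also: 0% = compound-free wells with enzyme and 100% = wells lacking proteasome; stock transfer was 100 nL into about 20 µL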
Target sequence (Q9Y5K5 whole entry, looked up): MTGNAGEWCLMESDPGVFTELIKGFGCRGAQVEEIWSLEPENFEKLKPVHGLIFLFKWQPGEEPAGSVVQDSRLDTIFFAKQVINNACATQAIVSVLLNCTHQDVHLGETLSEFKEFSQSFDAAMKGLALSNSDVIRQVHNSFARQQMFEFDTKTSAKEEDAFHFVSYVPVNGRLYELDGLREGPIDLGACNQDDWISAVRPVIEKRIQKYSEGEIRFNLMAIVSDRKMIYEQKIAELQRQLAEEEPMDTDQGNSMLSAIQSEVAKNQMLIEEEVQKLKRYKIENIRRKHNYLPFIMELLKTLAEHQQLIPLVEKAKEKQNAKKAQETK
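system = Proteasome-associated human UCH37 deubiquitinase | amount = 0.15 nM proteasome as dispensed | medium = pH 7.4 Tris-HCl (50 mM) with ovalbumin, ATP-MgCl2, DTT | incubation = 30 min preincubation with enzyme, 25 min cleavage at room temperature | detection = AMC fluorescence 355/460 nm | read-out basis = percent inhibition | controls = no-proteasome and no-compound wells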
Active calls of the source: *; i = inactive; ? = inconclusive; / = no result given. Only part of the results is shown (hit frequency here may not be typical).

SMILES	MLL AF4-AF9 inh	FGF22 binding	Vif A3G	Ecoli growth	HNF4A DNA FP	RanGTP-Impb inh	UCH37 DUB inh
Nc1ccc(Br)cc1C(NCC(=O)O)c1ccccc1 (stereo unspecified)	-11	i	7%	0.63	-2.0	-2.1	1.5
CC(NS(=O)(=O)c1ccc2[nH]c(=O)c(=O)[nH]c2c1)C(=O)O (stereo unspecified)	-5.2	i	?	0.72	4.9	-0.8	-0.9
COc1ccc(-c2cc(=O)oc3cc4occ(C)c4cc23)cc1	/	/	-8%	0.75	5.1	?	-3.4
CCN=C(NCC)SC1CC(=O)N(c2ccc(F)cc2)C1=O (stereo unspecified)	-2.7	i	-1%	0.75	-0.4	-6.0	2.0
O=C(c1ccc(Cl)c(S(=O)(=O)N2CCCCCC2)c1)N1CCN(c2ccccc2O)CC1	2.2	i	6%	0.7	-3.7	2.7	2.1
FC(F)(F)c1ccccc1NC(=S)N1CCN(c2ncccn2)CC1	/	/	3%	0.7	0.5	-2.2	-1.8
COC(=O)c1c(NC(=O)CSc2nnc(-c3cccnc3)n2Cc2ccco2)sc(C)c1C	/	/	6%	0.75	-1.7	0.0	2.9
Cc1c(C(=O)N(C)CCn2ccnc2C)oc2c(F)cccc12	-0.1	i	/	0.71	1.8	-3.6	0.1
CCC(C(=O)NCc1cccs1)n1nc(C)n2c(cc3occc32)c1=O (stereo unspecified)	-4.9	i	0%	0.6	-3.2	5.1	1.2
Brc1ccc2c(c1)C(c1cccs1)=NNC(c1cccnc1)=N2	/	/	4%	0.69	0.0	1.8	2.4
COc1ccc(C)cc1S(=O)(=O)N1CCCC(C(=O)N2CCN(c3ccccc3)CC2)C1 (stereo unspecified)	1.3	i	11%	0.7	-5.7	3.3	-0.2
CCOP(=O)(OCC)/C(C#N)=C/c1ccc([N+](=O)[O-])cc1	1.4	i	/	0.67	4.8	-4.0	3.9
CCc1cc(C(=O)N2CCCC(Nc3ccc(F)c(F)c3)C2)n(C)n1 (stereo unspecified)	2.3	i	/	0.72	-1.1	5.8	5.9
CN1CCN(c2nc(C#N)cc(-c3ccccc3)n2)CC1	/	/	0%	0.71	2.2	-0.7	-20
Cc1ccc(C)c(N2CCN(C(=O)CCc3nc(-c4ccccc4Cl)no3)CC2)c1	-0.6	i	/	0.73	0.6	/	0.9
C=CCNC(=S)N1CCN(c2ccc([N+](=O)[O-])cc2)CC1	1.1	i	28%	0.69	-1.5	-0.6	11
Cc1ccc(CC2CC(=O)N(c3cc(Cl)ccn3)C2=O)cc1 (stereo unspecified)	-2.7	i	1%	0.67	-0.7	3.9	4.5
O=C(Cn1nc(-c2ccccc2)ccc1=O)Nc1ccc(N2CCN(C(=O)c3cccs3)CC2)cc1	-0.2	/	20%	0.74	0.1	-2.3	4.6
COc1ccc(-c2nnc(SCC(=O)Nc3cccnc3Cl)n2C)cc1	-2.0	i	-1%	0.67	-0.5	0.7	4.0
Cc1cc(SCNC(=O)c2ccccc2)ncn1	-2.4	i	7%	0.65	-1.8	1.8	0.6

In another format: six of the compounds above.
SMILES | MLL AF4-AF9 inh | FGF22 binding | Vif A3G | Ecoli growth | HNF4A DNA FP | RanGTP-Impb inh | UCH37 DUB inh
Nc1ccc(Br)cc1C(NCC(=O)O)c1ccccc1 (stereo unspecified) | -11 | i | 7% | 0.63 | -2.0 | -2.1 | 1.5
CC(NS(=O)(=O)c1ccc2[nH]c(=O)c(=O)[nH]c2c1)C(=O)O (stereo unspecified) | -5.2 | i | ? | 0.72 | 4.9 | -0.8 | -0.9
COc1ccc(-c2cc(=O)oc3cc4occ(C)c4cc23)cc1 | / | / | -8% | 0.75 | 5.1 | ? | -3.4
CCN=C(NCC)SC1CC(=O)N(c2ccc(F)cc2)C1=O (stereo unspecified) | -2.7 | i | -1% | 0.75 | -0.4 | -6.0 | 2.0
O=C(c1ccc(Cl)c(S(=O)(=O)N2CCCCCC2)c1)N1CCN(c2ccccc2O)CC1 | 2.2 | i | 6% | 0.7 | -3.7 | 2.7 | 2.1
FC(F)(F)c1ccccc1NC(=S)N1CCN(c2ncccn2)CC1 | / | / | 3% | 0.7 | 0.5 | -2.2 | -1.8

(list continues)
SMILES	MLL AF4-AF9 inh	FGF22 binding	Vif A3G	Ecoli growth	HNF4A DNA FP	RanGTP-Impb inh	UCH37 DUB inh
Cc1c(C(=O)NCc2ccc(Cl)c(Cl)c2)sc(=O)n1Cc1cccc(F)c1	0.1	i	/	/	3.4	/	/
O=C(NCCN1C(=O)S/C(=C/c2ccccc2)C1=O)C1CC(=O)N(Cc2ccccc2)C1 (stereo unspecified)	3.7	i	-9%	0.68	0.7	/	3.3
COc1cc(OC)cc(C(=O)NN(CCC#N)C2=NS(=O)(=O)c3ccccc32)c1	3.3	i	6%	0.69	1.6	1.0	1.7
O=C(Cc1ccccc1)NNC(=O)c1cccs1	/	/	2%	0.7	-2.6	-1.9	3.8
CC1CN(C(=O)c2ccccc2)OC(c2ccc3c(c2)OCO3)O1 (stereo unspecified)	/	/	-8%	0.7	-4.5	?	4.3
CCN(CC)S(=O)(=O)c1cccc(C(=O)Nc2cc3oc4ccccc4c3cc2OC)c1	2.7	i	7%	0.69	1.5	-0.6	-24
c1ccc2nc3[nH]cnc3nc2c1	/	/	-2%	0.67	-3.3	-6.2	-84
O=S(=O)(c1ccccc1)N1CCC(O)(CSc2ccc(F)cc2)CC1	2.1	i	-1%	0.7	2.3	0.4	3.5
Cc1ccc(N2CCN(/N=C/C=C/c3ccccc3)CC2)cc1	/	/	5%	/	-0.9	-0.9	/
COc1ccc(CCNC(=O)C2(C)CCC(=O)N2Cc2ccc3c(c2)OCO3)cc1OC (stereo unspecified)	-0.8	i	3%	0.76	3.7	6.4	3.6
O=C(O)CCCn1cc(NC(=O)COc2cc(F)ccc2[N+](=O)[O-])cn1	-0.4	i	-7%	0.67	0.8	7.2	1.8
O=C(NCc1cccs1)c1ccc2c(c1)ncn2C1CCCC1	/	/	65%	0.66	2.2	-0.6	3.9
CCCCC(=O)Nc1ccc(NC(=O)c2ccc([N+](=O)[O-])cc2Cl)cc1OC	/	/	15%	0.7	-0.1	-0.9	4.7
Cc1ccccc1NCC(=O)N/N=C/c1c[nH]c2ccccc12	10	i	/	/	0.0	-0.9	/
Cc1nn(C)c(C(=O)N/N=C/c2cc3c(cc2Br)OCO3)c1Br	/	/	19%	/	-0.8	0.2	/
Cc1cc(-c2nnc(CCC(=O)NCC(C)c3ccccc3)o2)no1 (stereo unspecified)	0.0	i	-1%	0.74	2.8	0.4	0.5
Cc1ccc(CCc2nnc(SCC(=O)Nc3cccc(Cl)c3)n2-c2ccccc2)o1	-2.1	i	/	0.72	-1.7	-1.1	3.1
O=C(c1ccc(Cl)cc1)N(Cc1ccccc1F)N1C(=O)CCCC1=O	6.7	i	-9%	0.7	3.0	3.2	-0.6
Cc1nc2scc(-c3cccs3)c2c(=O)o1	/	/	10%	0.68	-1.8	2.2	1.2
N#CCCN(Cc1cccnc1)C(=S)NC(=O)c1ccccc1	-11	i	-4%	0.68	3.4	/	-2.1
Cc1ccc(-c2nnn(CC(=O)Nc3nnc(C(C)C)s3)n2)cc1	0.8	i	-4%	0.7	-1.0	?	0.7
O=C(O)c1ccc(N=C2NC(=O)C(CO)(CO)S2)cc1	-6.7	i	-1%	0.71	-2.3	1.4	-1.4
O=C(CN1C(=O)NC2(CCCC2)C1=O)N1CCN(S(=O)(=O)c2cccc(F)c2)CC1	0.6	i	/	0.7	-0.8	2.7	2.4
CCc1cc(C(=O)N2CCCC(CNS(=O)(=O)c3cccs3)C2)n(C)n1 (stereo unspecified)	-1.7	i	-13%	0.65	-3.6	-0.2	1.0
Cc1nc2cc(Cl)c([N+](=O)[O-])cc2s1	-0.4	i	5%	0.7	-0.4	0.0	2.2
O=C(CCS(=O)(=O)c1cccc2nonc12)NCCc1ccccc1	/	/	-6%	0.7	1.1	-3.2	4.3
COc1ccc(OCCCC(=O)NCC(C)C)cc1	/	/	-1%	0.7	-0.7	4.2	2.5
CN1CCN(CCCNC(=O)c2cc3c(-c4ccc(Cl)cc4)nn(C)c3s2)CC1	8.1	i	0%	0.74	-2.5	2.6	-132
CCOC(=O)[C@H]1[C@H]2COc3ccc(C)cc3[C@@H]2N2C(=O)c3cc(F)ccc3NC(=O)[C@@]12C	-2.4	i	/	/	5.3	/	7.9
CC(C(=O)Nc1ccc2c(c1)OCCO2)N(c1ccccc1)S(C)(=O)=O (stereo unspecified)	-7.4	i	8%	0.7	-1.1	0.6	-2.4
OC1(c2ccc(F)cc2)CSC(=Nc2cccnc2)N1Cc1ccco1 (stereo unspecified)	8.9	i	0%	0.66	4.2	-1.3	2.8
CC(O)(c1cccc(F)c1)c1nc(-c2cnc3ccccc3c2)cs1 (stereo unspecified)	-1.3	i	/	/	-0.1	/	/
CC(C)(C)C1CCC2(CC1)C(Nc1cccc(C(F)(F)F)c1)=NC(=S)N2CC#N (stereo unspecified)	/	/	/	0.72	3.2	1.1	2.4
Cc1ccc(-c2nc3ccsc3c(=O)o2)cc1	/	/	-3%	0.72	-3.8	0.1	1.5
N#CC1=C(N)NC(SCc2ccc(F)cc2)=C(C#N)C12CCCCC2	/	/	5%	0.68	1.7	-1.5	6.3
COc1cccc(C(=O)C2CCCN(C(=O)CCC3=NNC(=O)CC3)C2)c1 (stereo unspecified)	2.6	i	-1%	0.67	-1.5	4.2	0.3
Cc1noc(C)c1COc1ccc(C(=O)N2CCN(c3ccccc3F)CC2)cc1	-2.1	i	-2%	0.64	-4.2	4.4	5.6
O=C(Nc1cccc(S(=O)(=O)N2CCCC2)c1)c1ccc2ccccc2n1	-0.3	/	3%	0.71	-0.9	-1.1	3.6
CO/N=C(\Cn1ncc(NC2CCCCC2)c(Br)c1=O)c1ccc(Cl)cc1	/	/	-1%	/	0.1	5.6	/
Cc1c(CC(=O)O)c(=O)oc2cc(OCc3ccc(Br)cc3)ccc12	4.7	i	-9%	0.65	-0.7	-3.8	-348
CCCc1cc(CN(C)C(=O)c2ccc(OC3CCN(C(C)=O)CC3)c(OC)c2)[nH]n1	-4.9	i	-2%	/	2.8	/	/
O=C(CN1C(=O)c2ccccc2S1(=O)=O)NCCSCc1ccco1	/	/	0%	0.67	3.6	-2.6	6.1
COc1cc(/C=N/NC(=O)c2ccccc2)ccc1O	-0.3	/	22%	/	-2.6	-0.7	/
CSc1nc(Oc2ccc(=O)n(C)n2)nc(N(C)C)n1	/	/	1%	0.64	0.4	-2.8	1.0
O=C(Nc1ccccc1Cl)c1ccc2c(c1)N(Cc1ccc(F)cc1)C(=O)CS2=O (stereo unspecified)	-3.0	/	-8%	0.7	-4.8	-4.9	4.7
CCC(O)(c1ccc(OC)cc1)C(CN1CCOCC1)c1ccccc1 (stereo unspecified)	0.1	i	6%	0.67	1.1	/	-0.3
COC(=O)Nc1nc2c(s1)CCCC2	/	/	1%	0.69	-1.1	1.6	1.0
CC1=C(C)CC(C(=O)NNC(=O)c2ccccc2O)C(C(=O)O)C1 (stereo unspecified)	/	/	0%	0.69	0.9	0.3	-14
Cc1cccc(NC(=S)NC(=O)c2ccc(-c3ccccc3)cc2)n1	-1.5	i	/	0.7	-6.6	3.1	0.3
O=C1Nc2ccccc2N(O)N1c1cc(-c2ccccc2)[nH]n1	-4.1	i	0%	0.73	0.8	3.5	2.2
CC(=O)Nc1ccc(Nc2cc(N3CCOCC3)c3nonc3c2[N+](=O)[O-])cc1	-2.5	/	/	0.69	-0.4	-0.4	9.4
